# Mtb growth: Mycobacterium tuberculosis H37Rv growth inhibition, putative kinase inhibitor library, confirmatory dose response (AID 2842) | inhibition, % at 10 µg/mL; hits with a dose series show IC90 in µg/mL | 24,000 compounds, 5.2% hits | M. tuberculosis H37Rv growth inhibition; higher % means a stronger effect; some inactives read as strong as hits;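 active = confirmed in a dose series; inconclusive = mostly over 85% at the one dose but not retested; inactive = below 85% or not confirmed; about a fifth of its hits are not listed in these tables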;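 also: bacteria incubated one week before Alamar blue readout; 0% = bacteria only wells and 100% = bacteria with high antibiotic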
# Starred values were filed as active, the others as inactive; ? = inconclusive. Some of the compounds tested (hit frequency here may not be typical).
SMILES,Mtb growth
COc1cccc(-c2csc(/C(C#N)=C\Nc3ccc(S(N)(=O)=O)cc3)n2)c1,2.9%
O=C(CC12CC3CC(CC(C3)C1)C2)Nc1nnc(-c2ccccc2Cl)s1,64.3%
CC(C)c1ccc(S(=O)(=O)Nc2ccc(O)c(Cl)c2)cc1,-3.1%
CCc1nnsc1C(=O)Nc1ccc(S(=O)(=O)N2CCOCC2)cc1,0.0%
NS(=O)(=O)c1ccc(CCNc2cc(=O)n(Cc3ccc(F)cc3)c(=O)[nH]2)cc1,7.8%
Cc1ccc(Nc2nc(N3CCOCC3)nc3nccnc23)cc1Cl,2.8%
CCOc1ccc(C(=O)Nc2c(N)nc(SCC(=O)NC3CCCCC3)[nH]c2=O)cc1,0.3%
CCC(C(=O)NCCc1cc2c(C)ccc(C)c2[nH]c1=O)c1ccccc1 (stereo not drawn),-7.1%
O=C(CC1CCS(=O)(=O)C1)Nc1cccc2ccccc12 (stereo not drawn),1.1%
Cc1nnc2ccc(-c3cccc(NC(=O)C4CC4)c3)nn12,-6.7%
CCCC(=O)Nc1nnc(SCC(=O)Nc2nccs2)s1,-2.0%
COc1cc(C2=NN3C(C2)c2cccc(OC)c2OC3c2ccncc2)ccc1O (stereo not drawn),-4.9%
C=CCSc1nc2c(c(=O)[nH]c(=O)n2C)n1CCCC,16.2%
O=C(COC(=O)c1cc(-c2ccccc2)nc2ccccc12)c1ccc([N+](=O)[O-])cc1,-7.0%
CCOc1ccccc1NS(=O)(=O)c1c[nH]c(=O)[nH]c1=O,0.9%
COc1cccc2sc(NNC(=O)c3ccc(S(=O)(=O)N4CCc5ccccc5C4)cc3)nc12,1.0%
Cc1ccc(C(=O)NCCn2cc(SCC(=O)N3CCOCC3)c3ccccc32)cc1,-18.3%
Cn1c(=O)c2c(SCC(=O)Nc3ccccc3F)nc(-c3ccco3)nc2n(C)c1=O,7.1%
Cn1c(=O)c2c(nc(N3CCC(Cc4ccccc4)CC3)n2CCSc2nnnn2-c2ccccc2)n(C)c1=O,68.2%
O=C(COc1cccc2c1CCN(Cc1ccccc1F)C2=O)Nc1ccc2c(c1)OCO2,3.7%
CCOC(=O)c1sc(NC(=O)CSc2nc3ccccc3o2)c(C(=O)OCC)c1C,8.0%
O=S(=O)(NCC(c1cccnc1)N1CCN(Cc2ccccc2)CC1)c1ccccc1 (stereo not drawn),-1.4%
CC(C)N1CCc2c(sc(NC(=O)c3ccc(C#N)cc3)c2C(N)=O)C1,1.6%
O=C(CCCCl)Nc1nnc(-c2ccc(Cl)cc2Cl)s1,12.8%
Fc1ccc(Cn2cc3c(-c4ccc5c(c4)OCO5)nnc-3c3cc4c(cc32)OCO4)cc1,9.4%
CCS(=O)(=O)c1cccc(C(=O)Nc2ccccc2-c2nc3ccccc3[nH]2)c1,-4.5%
CCN1C(=O)NC2(CCN(CC(=O)Nc3ccc4c(c3)OCO4)CC2)C1=O,-17.2%
COc1ccc(-c2csc(NC(=O)c3ccc(N4C(=O)CCC4=O)cc3)n2)cc1,12.0%
Cc1ccc(C(=O)NCCc2cc3ccc(C)c(C)c3[nH]c2=O)cc1,-6.6%
COc1ccc(C(=O)Nc2c(C(=O)Nc3cc(OC)ccc3OC)oc3ccccc23)cc1,8.6%
CSc1nc2ccc(NC(=O)c3c(F)cccc3F)cc2s1,16.2%
CCC(=O)NNc1nc2c(Cl)cccc2s1,9.0%
CCOc1ccccc1/C=N/NC(=O)CNC(=O)c1ccc(S(=O)(=O)N(CC)CC)cc1,-10.1%
Cc1ccc(-n2ccnc(NCC(C)c3ccccc3)c2=O)cc1C (stereo not drawn),18.1µg/mL*
O=C1N=C(N2CCN(c3ccccc3)CC2)S/C1=C\c1cccnc1,17.1%
CN(C1CCCCC1)S(=O)(=O)c1ccc(C(=O)Nc2nnc(-c3ccccc3Cl)o2)cc1,96.2%
NC(=O)c1ccsc1NC(=O)c1ccc(Cl)s1,-1.7%
Cc1ccc(NC(=O)CSc2nc(N)c(NC(=O)c3ccc(F)c(F)c3)c(=O)[nH]2)c(C)c1,-6.3%
Cc1sc(NC(=O)c2ccc(S(=O)(=O)N(C)C3CCCCC3)cc2)nc1-c1ccccc1,9.4%
COc1ccc(/C=C/C(=O)Nc2sc3c(c2C#N)CCC(C)C3)cc1OC (stereo not drawn),-1.2%
Cc1cc2c(cc1C)NC(CC(=O)NCc1ccccc1)C(=O)N2 (stereo not drawn),12.2%
CC(C)c1nnc(NC(=O)CN2C(=O)c3ccccc3C2=O)s1,-6.3%
COc1ccc2nc(Nc3nc(C(C)(C)C)cs3)sc2c1,10.1µg/mL*
O=C(NCc1ccc(Cl)cc1)NC1CC(=O)N(c2ccccc2)C1 (stereo not drawn),6.2%
Cc1ccc(C)c(-c2csc(NC(=O)c3ccc(S(=O)(=O)N4CCCC(C)C4)cc3)n2)c1 (stereo not drawn),10.8%
CC(C)c1ccc(-c2nc(C(N)=O)c3[nH]c(=O)n(-c4ccc5c(c4)OCO5)c3n2)cc1,-5.2%
CC1(C)CC(=O)c2sc(NC(=O)/C=C/c3cccs3)nc2C1,3.5%
Cc1cc(=O)[nH]c(SCc2nc3c(cnn3-c3ccccc3)c(=O)[nH]2)n1,-3.0%
O=C(Nc1c(C(=O)Nc2cccc(F)c2)oc2ccccc12)c1ccc(Br)o1,14.2%
O=C(CSc1n[nH]c(=O)[nH]c1=O)c1ccccc1,12.1µg/mL*
Cn1c(=O)c2c(nc(Sc3ccccc3)n2Cc2ccccc2Cl)n(C)c1=O,-1.6%
COc1ccc(-c2csc(NC(=O)CSCC(=O)N3CCCc4ccccc43)n2)cc1,49.6%
Cc1ccc(C)c2[nH]c(=O)c(CCNC(=O)c3ccc(Br)cc3)cc12,-10.7%
COC(=O)c1ccc(/C=N/NC(=O)CCn2cnc3ccccc32)cc1,-0.3%
O=C(Cn1cnc2c(cnn2-c2ccccc2)c1=O)Nc1ccc2c(c1)OCCO2,-4.9%
CCOc1ccc(-n2c(=O)[nH]c3c(C(N)=O)nc(-c4ccc(F)cc4)nc32)cc1,-14.1%
COc1ccc(C(=O)c2cn(Cc3cccc(OC)c3)c3ccccc3c2=O)cc1,7.7%
Nc1nc(SCC(=O)N2CCN(c3ccccc3)CC2)[nH]c(=O)c1NC(=O)c1ccccc1,-7.5%
Cc1cccc(NC(=O)CSc2nnc(-c3ccncc3)o2)c1,-8.8%
COc1ccc(NC(=O)c2oc3ccccc3c2NC(=O)c2ccccc2[N+](=O)[O-])cc1,-9.4%

# (further entries)
SMILES,Mtb growth
Cc1ccc(S(=O)(=O)N2CCC(C(=O)Nc3nnc(-c4cccs4)o3)CC2)cc1,-4.0%
CC1CCc2c(sc(NC(=O)CN3C(=O)CCC3=O)c2C(N)=O)C1 (stereo not drawn),-21.8%
Cc1nnc(SCCCn2c(N3CCCCC3)nc3c2c(=O)[nH]c(=O)n3C)s1,-0.6%
CCCCOc1ccc(C(=O)Nc2scc3c(C(=O)OCC)nn(-c4ccc(C(F)(F)F)cc4)c(=O)c23)cc1,13.7%
COc1ccccc1Cn1cc2c(-c3ccc(Cl)cc3)nnc-2c2cc3c(cc21)OCCO3,5.5%
CC(C)Sc1nc2c(c(=O)[nH]1)C(c1cccc(F)c1)C1=C(CCCC1=O)N2 (stereo not drawn),2.9%
COC(=O)Cn1c(=NC(=O)c2cccc([N+](=O)[O-])c2)sc2cc3c(cc21)OCCO3,-7.3%
C/C(=N/NC(=O)c1sc(N)nc1C)c1ccc(O)cc1,9.8%
CCOc1ccccc1C(=O)NC1CC(=O)N(c2ccc(C)c(C)c2)C1 (stereo not drawn),7.9%
O=c1ccc2ccc(Oc3ncnc4sccc34)cc2o1,-4.7%
Cc1cccc(NC(=O)c2c(-c3ccccc3Cl)noc2C)c1C,1.2%
CCC(C)C(=O)Nc1nnc(Cc2ccc(OC)cc2)s1 (stereo not drawn),22.7%
COC(=O)C1=C(C)Nc2nc(SCc3ccc([N+](=O)[O-])cc3)[nH]c(=O)c2C1c1cccnc1 (stereo not drawn),7.6%
CC1CCCCN1S(=O)(=O)c1ccc(C(=O)Nc2nc3c(ccc4ccccc43)s2)cc1 (stereo not drawn),32.5%
Cc1cc(C)c2nc(C(F)(F)F)nc(NCCCc3ccccc3)c2c1,70.5%
CCSc1ccccc1C(=O)Nc1sc2c(c1C(N)=O)CCCCC2,-0.6%
CCOC(=O)c1nn(-c2cccc(Cl)c2)c(=O)c2c(NC(=O)c3ccc(S(=O)(=O)N4CCCC4)cc3)scc12,11.2%
CCc1ccc2nc(Nc3nc4ccc(S(C)(=O)=O)cc4s3)sc2c1,7.52µg/mL*
O=C1Cc2cc(NC(=O)c3ccccc3C(F)(F)F)ccc2N1,-8.3%
Cc1c(Cc2ccc3c(c2)OCO3)sc(NC(=O)Cc2ccccc2)c1C#N,0.9%
O=C(NC1CC(=O)N(c2ccc(F)cc2)C1)c1ccc(Cl)cc1 (stereo not drawn),-8.5%
Cc1ccc(NC(=O)c2oc3ccccc3c2NC(=O)c2ccc([N+](=O)[O-])cc2)cc1C,-5.9%
CCn1c2c(c(=O)[nH]c1=O)C(c1cc(OC)ccc1OC)C1=C(COC1=O)N2 (stereo not drawn),8.2%
NC(=O)c1nc(-c2ccccc2Cl)nc2c1[nH]c(=O)n2-c1ccc(F)cc1,-5.8%
Cc1c(Cc2ccc3c(c2)OCO3)sc(NC(=O)COc2ccc(Cl)cc2)c1C(N)=O,-1.0%
Cc1ccc(C)c2sc(N(CCCn3ccnc3)C(=O)COc3ccccc3)nc12,6.05µg/mL*
CCOc1ccc(-c2ccc(=O)n(CCNS(=O)(=O)c3ccc(OC(F)(F)F)cc3)n2)cc1,5.1%
N#Cc1c(NC(=O)C2COc3ccccc3O2)sc2c1CCCC2 (stereo not drawn),-4.9%
CCS(=O)(=O)c1ccc(CC(=O)Nc2sc3c(c2C(N)=O)CCCCC3)cc1,8.9%
CC1CN(c2cccc(Cl)c2)c2nc3c(c(=O)n(CC(=O)O)c(=O)n3C)n2C1 (stereo not drawn),-11.8%
CC(Oc1ccccc1)C(=O)N1CC(=O)Nc2ccc(Cl)cc2C1c1ccc(F)cc1 (stereo not drawn),45.6%
N#C/C(=C\Nc1ccc(S(=O)(=O)Nc2nccs2)cc1)c1nc(-c2cccc([N+](=O)[O-])c2)cs1,7.5%
O=C(/C=C/c1ccccc1)Nc1nnc(-c2ccc3c(c2)CCCC3)o1,1.67µg/mL*
CCCCCSc1nc2c(c(=O)[nH]c(=O)n2C)n1CC(O)COc1ccccc1 (stereo not drawn),71.9%
O=C(c1cccc(Nc2nc(-c3ccccc3)c3cc(Br)ccc3n2)c1)N1CCOCC1,49.7%
COc1cccc2c(=O)n(CC(=O)Nc3c(C)cc(C)cc3C)ccc12,-0.8%
C=CCn1c(O)c(C2=c3cc(Br)ccc3=NC2=O)s/c1=N/c1nccs1,61.2%
CC(C)c1ccc2nc(Nc3nc4ccc(F)cc4s3)sc2c1,65.6%
COC(=O)C1=C(N)Oc2c(oc(CO)cc2=O)C1c1ccc(Cl)cc1 (stereo not drawn),-7.6%
CC(C)(C)c1ccc(-c2csc(NC(=O)c3cc(=O)c4ccccc4o3)n2)cc1,11.3%
C=CCNC(=S)Nc1ccc(O)c(C(=O)O)c1,20.9%
COc1ccccc1Nc1nc2ccc(SC)cc2s1,?
COc1cccc(-c2ccc3nnc(SCc4ccccn4)n3n2)c1,1.8%
COC(=O)c1c(NC(=O)CSc2nnc3sc4ccccc4n23)sc2c1CCC2,-5.5%
COc1ccccc1-c1coc2cc(OC(=O)C(C)C)ccc2c1=O,4.1%
COc1ccccc1NC(=O)c1oc2ccccc2c1NC(=O)CC(C)(C)C,6.1%
COc1ccc(-c2nc(SCC(=O)Nc3ccc(F)cc3)c3c(=O)n(C)c(=O)n(C)c3n2)cc1,-15.6%
Cc1ccc(NC(=O)c2oc3ccccc3c2NC(=O)CCl)cc1C,10.2µg/mL*
Cc1sc2nc(SCC(=O)NCCOCCO)nc(N)c2c1C,-3.9%
Cc1cc(C)nc(SCc2cc(=O)c(OC(=O)Cc3ccc(Cl)cc3)co2)n1,-0.3%
Cc1ccc(NC(=O)CSc2ncnc3c2oc2ccccc23)cc1,98.2%
CCOC(=O)c1nn(-c2ccc(OC)cc2)c(=O)c2c(NC(=O)c3ccc(C)cc3)scc12,-4.2%
Cc1cccc(NC(=O)CS(=O)(=O)c2cn(Cc3ccc(F)cc3)c3ccccc23)c1C,12.3%
Cc1ccc2nc(N/N=C/c3ccc(Br)cc3)nc(-c3ccccc3)c2c1,17.7%
Cc1cccc(NC(=O)c2cnc3n(c2=O)CCS3)c1,2.0%
CCc1ccc(N2C(=O)N(Cc3ccccc3Cl)C3CS(=O)(=O)CC32)cc1 (stereo not drawn),-0.3%

# Structures above with a COOH group (2):
SMILES,Mtb growth
CC1CN(c2cccc(Cl)c2)c2nc3c(c(=O)n(CC(=O)O)c(=O)n3C)n2C1 (stereo not drawn),-11.8%
C=CCNC(=S)Nc1ccc(O)c(C(=O)O)c1,20.9%

# Among those listed so far, these contain a tert-butyl group:
SMILES,Mtb growth
COc1ccc2nc(Nc3nc(C(C)(C)C)cs3)sc2c1,10.1µg/mL*
CC(C)(C)c1ccc(-c2csc(NC(=O)c3cc(=O)c4ccccc4o3)n2)cc1,11.3%
COc1ccccc1NC(=O)c1oc2ccccc2c1NC(=O)CC(C)(C)C,6.1%

# Quoted at random: seven entries already listed, in no set order.
SMILES,Mtb growth
O=C(NC1CC(=O)N(c2ccc(F)cc2)C1)c1ccc(Cl)cc1 (stereo not drawn),-8.5%
Cc1c(Cc2ccc3c(c2)OCO3)sc(NC(=O)COc2ccc(Cl)cc2)c1C(N)=O,-1.0%
Cc1ccc(NC(=O)CSc2nc(N)c(NC(=O)c3ccc(F)c(F)c3)c(=O)[nH]2)c(C)c1,-6.3%
O=C(c1cccc(Nc2nc(-c3ccccc3)c3cc(Br)ccc3n2)c1)N1CCOCC1,49.7%
COC(=O)C1=C(N)Oc2c(oc(CO)cc2=O)C1c1ccc(Cl)cc1 (stereo not drawn),-7.6%
CC1CN(c2cccc(Cl)c2)c2nc3c(c(=O)n(CC(=O)O)c(=O)n3C)n2C1 (stereo not drawn),-11.8%
O=C(/C=C/c1ccccc1)Nc1nnc(-c2ccc3c(c2)CCCC3)o1,1.67µg/mL*

# Screening results: PubChem BioAssay, Southern Research Institute
